# Autofluor counter: counter-screen for toxin protease inhibitors: compound fluorescence; 360,000 compounds, 3.1% hits; fluorescence intensity (test concentration not listed); AID 624483; compound autofluorescence counterscreen, microsphere flow cytometry; active compounds read high;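 active = at least 3 SD above the mean of all compounds, about 16000 in these data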;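 also: 100 nL of 1 mM stock went into each well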
# Mtb hypoxia rep: inhibitors of hypoxia-regulated fluorescent reporter in Mycobacterium tuberculosis; M. tuberculosis hypoxia-regulated fluorescent reporter, fluorescence; fluorescence inhibition, % (concentration not given with the values); 300,000 compounds, 0.1% hits;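 active = 35 to 45% if threefold the growth effect, above 45% if 1.5-fold the growth effect; inactive = the rest, general growth blockers included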;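 also: wells of about 50 µL received 100 nL stock; 0% = vehicle wells and 100% = reference inhibitor wells; whole bacteria with a GFP reporter of the hypoxia response; strong numbers were not always called active; many hits fall short of the cut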
# Sa RN4220 lethal: S. aureus RN4220 growth inhibition; OD600, 16 h; inhibition, % (no concentration beside the values); 330,000 compounds, 0.33% hits; AID 1259311;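 active = z-score of -3 or lower and OD600 up to 0.18 on both plates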;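 also: plate controls were untreated cells for no effect and reference antibiotic for full effect; stock transfer was 100 nL into about 80 µL; one replicate is shown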
# PrP UTR inh: suppresses PrP 5' UTR mRNA reporter expression | 340,000 compounds, 0.35% hits | cell-based PrP 5' UTR mRNA reporter, plate reader | AID 488862 | inhibition, % (concentration not given with the values);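 active = every replicate at 50% or more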;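 also: 0 = median of the neutral control wells; tested in H4 reporter cells; numbers are from one replicate; inactives centre near -14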
# BJeLR viability: kills HRASV12-expressing BJeLR cells | inhibition, % (no concentration beside the values) | AID 1554 | BJeLR (HRASV12) viability, CellTiter-Glo ATP luminescence, 48 h; reference of the scale not given here | 300,000 compounds, 0.17% hits;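 active = replicate mean above 50%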;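 also: 50 nL library stock added to about 25 µL; numbers are from one replicate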
# Sa ugtP lethal: kills S. aureus RN4220 lacking UgtP | S. aureus RN4220 ugtP deletion, OD600 growth, 16 h; some inactives read as strong as hits | growth inhibition, % (concentration not given with the values) | 330,000 compounds, 0.54% hits | AID 1259309;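 active = z-score under -3 and OD600 up to 0.15 on both plates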;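 also: plate controls were untreated wells for no effect and antibiotic for full effect; wells of about 80 µL received 100 nL stock; the first replicate is given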
# Mtb hypoxia rep growth: recorded beside Mtb hypoxia rep, whose call it bears; growth inhibition, %; measured here: M. tuberculosis growth (absorbance);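 0% = vehicle and 100% = reference antibiotic; read after six days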
# * marks the source's active call; other numbers are inactive results; x = not tested or not shown. Compounds were not picked by outcome. Share with any hit: about 4%.
SMILES,Autofluor counter,Mtb hypoxia rep,Mtb hypoxia rep growth,Sa RN4220 lethal,PrP UTR inh,BJeLR viability,Sa ugtP lethal
CCOc1ccc(CNC(=O)c2ccc(Sc3ccc(C)cc3)c(NC(C)=O)c2)cc1OC,1976,-4,5,-5.8,-13,-1,3
CC(=O)Nc1ccc(S(=O)(=O)N(C)CC(=O)Nc2cccc(S(=O)(=O)N3CCCC3)c2)cc1,5295,13,9,4.2,-18,4,5
CCCn1cc(SCC(=O)NCc2ccc3c(c2)OCO3)c2ccccc21,6019,6,1,5.4,-38,2,11
COC(=O)CCCC1=CC2=C(c3ccccc3)C(=O)C(C)(OC(=O)C3CCCC3)C(=O)C2=CN1c1ccc(OC)cc1 (configuration not stated),3473,9,10,1.8,-8,0,-10
Cc1nc2c(=O)oc3ccccc3c2n1-c1ccccc1,3218,2,-4,-0.3,1,-4,-9
CCCCC1(C)Nc2ccccc2-c2nc3ccccc3n21 (configuration not stated),10893,11,2,5.4,-77,2,2
Cc1cc(C(=O)CSc2nc(N)cc(=O)[nH]2)c(C)n1-c1ccc(OC(F)F)cc1,4455,5,5,-6.3,-2,-4,4
O=C(O)c1cc(-c2ccc(Cl)cc2)n(-c2ccc(F)cc2)n1,3904,6,5,-5.9,-1,-2,24
COc1ccc(CN(C(=O)Cc2cccs2)C(C(=O)NC2CCCC2)c2ccncc2)cc1 (configuration not stated),9732,-2,4,5.9,-16,1,2
c1ccc(-c2nc(N3CCOCC3)c3ccccc3n2)nc1,4565,x,x,1.7,-5,-2,4
CCOP(=O)(OCC)C(Nc1ccccn1)c1ccccc1 (configuration not stated),2014,10,1,8.2,-16,1,8
CN(C)/N=C/c1cc(Cl)cc([N+](=O)[O-])c1O,6872,x,x,x,-7,2,x
COc1ccccc1NS(=O)(=O)c1cc(NC(=O)C2CCCO2)ccc1C (configuration not stated),x,2,-8,4.6,-30,x,0
Cc1cc2nc(CO)[nH]c2cc1C,2805,13,7,6.9,-11,1,0
COc1ccc(-n2c(=O)c3ccccc3n(CC(=O)NCc3ccco3)c2=O)cc1,3848,-11,-12,3.7,8,-8,-5
Cc1cc(C)n2nc(C(=O)OCC(=O)N3C(C)CCCC3C)nc2n1 (configuration not stated),x,4,-1,-0.4,-30,3,-1
O=C(CN(Cc1ccccc1)S(=O)(=O)c1ccc(Br)cc1)N/N=C/c1ccccc1C(=O)O,4702,x,x,x,2,11,x
O=C(NCc1ccc(Cl)cc1)c1ccc2ccccc2n1,3979,15,18,3.3,-26,8,-6
Cc1ccc(S(=O)(=O)NCCNC(=O)N2CCOCC2)cc1,21580*,16,8,3.7,-4,-1,-1
CCN(CCCNC(=O)c1[nH]c(C)c(C(C)=O)c1C)c1cccc(C)c1,5230,x,x,0.2,-16,1,-1
O=C(Nc1ccc(F)cc1)N1CCc2ccccc2C1,4334,7,7,1.4,-48,-3,2
Fc1ccccc1NC(=S)Nc1ccc(Br)cc1,2102,13,2,-3.0,-47,7,-19
CC(=O)Nc1ccc(NC(=O)c2sc3nc4n(c(=O)c3c2C)CCCCC4)cc1,4723,15,4,2.0,13,-10,4
CSCC(=O)N1CCCC(CNC(=O)c2ccccc2Cl)C1 (configuration not stated),2415,9,0,5.4,-11,0,6
CC(C)(C)OC(=O)NCCCC[C@H](NC(=O)c1[nH]cnc1C(=O)Nc1ccccc1)C(=O)OC(C)(C)C,3993,x,x,x,-18,0,x
COc1cc(-n2c(=S)[nH]c3ccc(C)cc3c2=O)c(Cl)cc1Cl,5154,8,0,-8.9,-20,-2,-34
O=C(Nc1nc2c(Cl)c(Cl)ccc2s1)C1CC1,4391,2,1,5.1,-4,5,-4
Cn1cc(C(=O)c2cccc(Cl)c2)cc1/C=N\O,5005,x,x,x,-23,5,x
Cc1ccc(C(=O)Nc2cccc([N+](=O)[O-])c2)cc1S(=O)(=O)Nc1ccc(NC(=O)c2ccccc2)cc1,2380,x,x,x,5,6,x
Cc1ccc(NC(=O)Cn2cc(C(=O)C3CC3)c3ccccc32)cc1,4106,-6,-1,2.5,-21,-1,2
Cc1cccc(C(=O)Nc2ccc(S(=O)(=O)N3CCOCC3)cc2C)c1,4002,3,-2,-0.9,-17,-3,6
COCc1nnc(NC(=O)c2cc(OC)c(OC)cc2[N+](=O)[O-])s1,2512,-1,8,2.9,-8,-7,-1
NC(=O)Nc1ccc(C(=O)OCC(=O)Nc2ccc([N+](=O)[O-])cc2C(F)(F)F)cc1,2458,6,7,9.0,-10,10,9
CCCc1nnc(SCC(=O)O)n1CC,4679,10,8,5.8,-18,-5,1
CCOC(=O)c1ccc(NC(=S)NCc2ccc(F)cc2)cc1,6210,6,15,6.9,-19,-1,-16
Cc1cccc(NC(=O)C(=O)NCC2CCCO2)c1 (configuration not stated),4026,11,8,8.0,-93,-9,5
CCn1c(CNC(=O)c2ccc(F)cc2)cc2ccccc21,3947,3,-2,4.1,-27,-4,9
c1cc(-n2nnc3cnccc32)ccn1,3200,8,-3,4.1,-19,-3,7
O=C(O)c1cccc(S(=O)(=O)N2CCOCC2)c1,11827,-1,4,0.7,-22,-1,0
O=C(CSc1ccc(Cl)cc1)Nc1cccc(NC(=O)c2ccco2)c1,13029,6,12,5.9,-3,-1,-15

# Look-ups from the list.
# Under BJeLR viability, CCCc1nnc(SCC(=O)O)n1CC is entered as -5
# Under PrP UTR inh, Cc1cccc(NC(=O)C(=O)NCC2CCCO2)c1 (configuration not stated) is entered as -93
# Under Sa ugtP lethal, CCn1c(CNC(=O)c2ccc(F)cc2)cc2ccccc21 is entered as 9

# The results go on.
SMILES,Autofluor counter,Mtb hypoxia rep,Mtb hypoxia rep growth,Sa RN4220 lethal,PrP UTR inh,BJeLR viability,Sa ugtP lethal
O=C(c1cccs1)N1C2CCC1CC(O)(c1cccnc1)C2 (configuration not stated),3693,4,5,1.5,-22,-3,8
Cc1ccc(C(=O)COc2ccc3c(C)cc(=O)oc3c2)cc1,2807,1,-12,4.8,-13,-16,5
O=C(Nc1nc2ccsc2c(=O)s1)C1CCC1,5763,5,11,2.9,-73,11,-4
Cc1ccc(CNn2cn[nH]c2=S)cc1,6130,15,4,3.1,-46,2,-3
C#CCOCCOCCOCCNc1nc(N2CCN(C(=O)CCCCCCCCCCNC(=O)C(CO)n3cc(CCCSC)nn3)CC2)nc(N2CCN(C(=O)CCCCCCCCCCNC(=O)C(CO)n3cc(CCCSC)nn3)CC2)n1 (configuration not stated),x,-5,5,5.8,x,x,3
O=C(OCc1ccc(Br)cc1)c1cccc(-c2nnc(-c3ccccc3)o2)c1,2358,4,13,7.9,-34,3,-5
CCN(CC)CCNCC(=O)Nc1ccc(Cl)cc1C(=O)c1ccccc1,2451,-3,0,-3.8,-12,-12,8
Cc1cc(C)nc(SCc2cn3c(C)cc(C)nc3n2)n1,5866,7,-9,5.6,-35,-4,4
COC(=O)Cn1ncc(N(C)Cc2ccccc2)c(Cl)c1=O,4048,7,2,3.9,-28,-3,2
COCCCn1c(C)csc1=Nc1cccnc1,2405,9,2,-0.4,-2,-3,-5

# Structural class: the compounds so far with a COOH group (4)
SMILES,Autofluor counter,Mtb hypoxia rep,Mtb hypoxia rep growth,Sa RN4220 lethal,PrP UTR inh,BJeLR viability,Sa ugtP lethal
O=C(O)c1cc(-c2ccc(Cl)cc2)n(-c2ccc(F)cc2)n1,3904,6,5,-5.9,-1,-2,24
O=C(CN(Cc1ccccc1)S(=O)(=O)c1ccc(Br)cc1)N/N=C/c1ccccc1C(=O)O,4702,x,x,x,2,11,x
CCCc1nnc(SCC(=O)O)n1CC,4679,10,8,5.8,-18,-5,1
O=C(O)c1cccc(S(=O)(=O)N2CCOCC2)c1,11827,-1,4,0.7,-22,-1,0

# (list continues)
SMILES,Autofluor counter,Mtb hypoxia rep,Mtb hypoxia rep growth,Sa RN4220 lethal,PrP UTR inh,BJeLR viability,Sa ugtP lethal
CC(C)(C)c1csc(NC(=O)CS(=O)(=O)c2ccccc2)n1,3626,8,6,7.1,-30,-3,1
CC(C)Oc1ccccc1C=NNC(=O)c1ccc(F)cc1,x,-2,3,-6.6,x,x,-2
COc1ccc(-c2c(-c3ccccc3OC)oc3ccccc23)cc1F,2880,3,11,-4.8,-21,x,89*
CCOC(=O)c1cnc2nc[nH]n2c1=O,5688,1,0,2.6,-26,-4,1
Fc1ccccc1CSc1ncnc2c1ncn2C1CCCCO1 (configuration not stated),3070,12,7,2.2,-115,x,8
COc1ccc(-c2nc(C)ncc2-c2ccccc2)c(O)c1,3561,9,9,0.7,35,3,10
CC(C)c1ccc(NC(=S)NCc2cccs2)cc1,21787*,15,20,0.4,-23,-7,-5
Cc1ccc(C2(C)NC(=O)N(CC(=O)N3CCN(S(=O)(=O)c4cccc(F)c4)CC3)C2=O)cc1 (configuration not stated),4806,-1,-9,2.8,2,-7,2
C=CCNCc1cccn1-c1sc2c(c1C#N)CCCC2,4318,-10,-1,-3.0,-15,-1,-6
COc1ccccc1OCCn1c(SCC(N)=O)nc2ccccc21,3898,9,15,0.6,-18,-6,11
Cc1ccc(C(=O)c2ccccc2C(=O)OCC(=O)NCCc2ccc(Cl)cc2Cl)cc1,2561,-4,2,-6.1,-12,-1,-3
CCCNC(=O)NC(=O)CSc1nc2ccccc2c(=O)n1Cc1ccncc1,x,-9,-8,3.9,-2,4,6
CCCCN1C(=O)/C(=C/C=C2\SCCN2C)SC1=S,5456,25,7,-11,-42,4,-7
CCCN(CC(=O)Nc1ccccc1C)C(=O)Cc1c[nH]c2ccccc12,6013,3,0,1.6,1,x,0
CN(Cc1ccccc1)c1c([N+](=O)[O-])c(=O)n(C)c2ccccc12,3185,1,3,13,-7,-1,11
Cc1cc(N2C(=O)C(=O)/C(=C(/O)c3ccccc3)C2c2cccs2)no1 (configuration not stated),4736,16,5,5.2,-13,10,3
Cc1cccc(OCCCN2CCOCC2)c1,3572,6,10,0.9,-16,-3,3
Cc1ccc2c(c1)-c1c(cnn1CC(=O)N1CCCN(Cc3ccccc3F)C1)CO2,4667,5,12,-6.0,4,3,-10
Nc1ccc(C(=O)NN=Cc2cn(Cc3ccccc3)c3ccccc23)cc1,x,-3,9,-2.8,x,x,1
CC(C)(C)c1ccc(OCC(=O)O/N=C(\N)c2ccncc2)cc1,5706,0,4,6.7,-34,-8,-1
O=C(CN1CCN(C(c2ccccc2)c2ccccc2)CC1)NCc1ccccc1,4134,8,16,-3.6,-27,5,-2
CN(C)Cc1c[nH]c2ccccc12,4895,x,x,1.0,-8,x,2
O=S(=O)(NCC1CCCN(Cc2ccccc2)C1)c1cccc2cccnc12 (configuration not stated),6211,3,5,-1.5,-7,4,2
O=C(CSc1nnc(-c2ccco2)o1)N1CCOCC1,5814,3,14,0.1,-4,4,0
O=C1CCCc2c1[nH]c1ccc(Cl)cc21,3819,3,8,5.4,6,-4,-11
Cn1c(N)c(C(=O)COC(=O)/C=C/c2ccc(Cl)cc2Cl)c(=O)n(C)c1=O,3752,-3,10,-3.9,x,x,-7
Cc1ccc(C)c(OCCC(=O)NCCc2ccc(F)cc2)c1,5465,1,-3,-2.1,-16,-2,1
O=C(Nn1cnnc1)c1ccc([N+](=O)[O-])cc1,2557,7,-1,4.1,-10,-3,10
CCN1CCN(CC(=O)Nc2cc(S(=O)(=O)N(CC)c3ccccc3)ccc2Cl)CC1,3015,12,6,4.7,9,x,8
Nc1nc(Nc2ccccc2F)nc(N2CCOCC2)c1[N+](=O)[O-],3674,19,3,10,-34,-5,-21
CCOc1ccccc1NC(=S)NCCCn1ccnc1,4392,1,8,0.1,-32,-2,0
O=C(NC1CCCC1)C(c1ccncc1)N(C(=O)c1csnn1)c1ccc(F)cc1 (configuration not stated),6080,15,6,5.1,-17,-25,17
NS(=O)(=O)c1ccc(CCNC(=O)c2ccc3c(c2)OCCO3)cc1,5248,0,0,-0.1,-7,4,-3
O=C(Nc1ncc([N+](=O)[O-])s1)C1CCN(S(=O)(=O)c2cnc[nH]2)CC1,4423,9,4,2.4,-6,-9,3
COc1ccc(NC(=O)NCc2ccc3c(c2)OCO3)c(OC)c1,5958,8,7,4.0,-9,-1,2
Cc1cc(NC(=O)c2ccc(F)cc2)n(C)n1,3502,15,12,1.3,-19,5,1
COC(=O)c1sccc1NC(=S)Nc1ccc(OC)cc1,3298,-3,2,8.5,-9,2,7
Cc1cccc(NC(=S)NN(Cc2ccccc2)c2ccccc2)c1C,4523,5,10,-4.2,-5,3,1
